# Bioassay records from PubChem BioAssay.
# T cruzi inh: inhibitors of intracellular T. cruzi growth, primary screen, luminescence, NIH3T3 host cells; T. cruzi beta-gal in NIH3T3, 90 h; inhibition, % (no concentration beside the values); actives 1.4% (n = 300,000);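 active = mean inhibition across valid replicates above about 55%, limit read from the data; inconclusive = mean below that limit but half or more replicates reach it; inactive = mean below it, under half of replicates reach it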;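 note: signal also drops with host cell toxicity which is not excluded here; 0% = plate median of DMSO wells and 100% = zero luminescence signal; higher percent means less beta-gal luminescence so fewer parasites; stock transfer was 50 nL into about 50 µL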
# RanGTP-Impb inh: inhibitors of RanGTP-importin-beta interaction, primary screen, biochemical, FRET, CFP-Ran, YFP-importin-beta, homogeneous; Ran GTPase (GTP-bound) - importin-beta complex; cell-free CFP-Ran/YFP-importin-beta FRET ratio; inhibition, % (no concentration beside the values); actives 1.1% (n = 300,000);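 active = most replicates above 15%; inconclusive = exactly half above 15%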;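 note: 0% = DMSO wells and 100% = Ran loaded with GDP instead of GTP; wells of about 40 µL received 100 nL stock; the first replicate is given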
# Beta cell apopt: inhibitors of cytokine-induced beta cell apoptosis, primary screen, luminescence | INS-1E cytokine-induced death, ATP luminescence, 48 h; percent of positive-control rescue, neutral wells zero | protection from apoptosis, % (no concentration beside the values) | actives 0.8% (n = 300,000) | AID 435005, 2010;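 active = all replicates at 75% or more, or half of them and the mean; inconclusive = half reach 75% but not the mean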;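 note: 0% = cytokine-treated negative control wells and 100% = positive control rescue; higher means more ATP so stronger rescue from cytokine killing; wells of about 40 µL received 100 nL stock; the first replicate is given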
# Calb FLC: C. albicans growth inhibition with fluconazole, primary screen, CaCi-2 strain, Alamar Blue fluorescence. growth inhibition, % (test concentration not listed). C. albicans CaCi-2 (fluconazole-resistant clinical isolate) + fluconazole, 48 h. actives 0.57% (n = 300,000). AID 1979, 2009;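 active = most replicates above 75%; inconclusive = exactly half above 75%; inactive = most below 75%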;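 note: all wells also contain fluconazole at 8 µg/ml as a sub-toxic cotreatment; 0% = median of DMSO wells and 100% = median of geldanamycin control wells; wells of about 8 µL received 7.5 nL stock; the first replicate is given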
# A1 inh: caspase 3/7 activation in MEF A1-2A-BIM cells, primary screen, A1 inhibitor project, cell-based, luminescence, HTS; Caspase-Glo 3/7 luminescence, 3 h; percent of clofoctol response, vehicle zero; caspase activation, % (test concentration not listed); actives 0.066% (n = 330,000); AID 2462, 2010;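 active = over half of replicate activation scores above 10%, or exactly half above 10 with the replicate mean above 10; inconclusive = replicate mean below 10 yet half the replicates above 10; inactive = over half of replicates below 10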;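 note: wells of about 30 µL received 50 nL stock; many hits fall short of the cut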
# AF4-AF9 inh: inhibitors of AF4 peptide binding to AF9, primary screen, biochemical, AlphaScreen, biotin-AF4 peptide, FLAG-AF9, single point. AID 651704, 2012. Protein AF-9 (Homo sapiens), P42568. inhibition, % at 10 µM. actives 0.47% (n = 350,000);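 active = every replicate reaching a set inhibition limit, whatever the replicate mean, cut at about 25% in these data; inconclusive = mean inhibition reaches that limit but some replicates miss it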;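 note: 0% = plate neutral control median and 100% = total signal loss; the record names both 10 and 1 µM as test concentration; the first replicate is given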
# Vif A3G: inhibitors of Vif binding to APOBEC3G peptide, primary screen, biochemical, TR-FRET, GST-Vif 1-94, biotin-A3G peptide, dose response retest (AID 1117319); Virion infectivity factor (Human immunodeficiency virus type 1 group M subtype B (isolate …; TR-FRET GST-Vif / biotin-A3G peptide binding; higher % means a stronger effect; test concentration not given here; strong numbers were not always called active; inhibition, %; hits with a dose series show IC50 in µM; actives 0.57% (n = 260,000);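 active = above the screen mean plus three standard deviations and confirmed in dose response; inconclusive = results disagree or hit not tested in dose response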;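 note: Vif residues 1-94 fused to GST binding biotinylated APOBEC3G peptide 110-148; 0% = full assay without inhibitor and 100% = GST in place of GST-Vif; retest series ran down from 100 µM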
# LANA-H2A inh: blockers of LANA interaction with H2A/H2B – biochemical, FP readout, HTS, primary screen; Protein LANA1 (Human herpesvirus 8 type P (isolate GK18)), Q9QR71; actives 0.6% (n = 320,000); AID 2629, 2010; cell-free LANA-H2A/H2B peptide, fluorescence polarization; inhibition, % (concentration not given with the values); in the data active = inhibition mostly above about 10%, no sharp cut-off; inactive = mostly below about 6.7%;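 note: stock transfer was 7.5 nL into about 10 µL; 0% = median of vehicle wells and 100% = median of positive control wells; one replicate is shown; the record names a cut of 25% in any replicate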
# Target sequence (Q9QR71 whole entry, looked up): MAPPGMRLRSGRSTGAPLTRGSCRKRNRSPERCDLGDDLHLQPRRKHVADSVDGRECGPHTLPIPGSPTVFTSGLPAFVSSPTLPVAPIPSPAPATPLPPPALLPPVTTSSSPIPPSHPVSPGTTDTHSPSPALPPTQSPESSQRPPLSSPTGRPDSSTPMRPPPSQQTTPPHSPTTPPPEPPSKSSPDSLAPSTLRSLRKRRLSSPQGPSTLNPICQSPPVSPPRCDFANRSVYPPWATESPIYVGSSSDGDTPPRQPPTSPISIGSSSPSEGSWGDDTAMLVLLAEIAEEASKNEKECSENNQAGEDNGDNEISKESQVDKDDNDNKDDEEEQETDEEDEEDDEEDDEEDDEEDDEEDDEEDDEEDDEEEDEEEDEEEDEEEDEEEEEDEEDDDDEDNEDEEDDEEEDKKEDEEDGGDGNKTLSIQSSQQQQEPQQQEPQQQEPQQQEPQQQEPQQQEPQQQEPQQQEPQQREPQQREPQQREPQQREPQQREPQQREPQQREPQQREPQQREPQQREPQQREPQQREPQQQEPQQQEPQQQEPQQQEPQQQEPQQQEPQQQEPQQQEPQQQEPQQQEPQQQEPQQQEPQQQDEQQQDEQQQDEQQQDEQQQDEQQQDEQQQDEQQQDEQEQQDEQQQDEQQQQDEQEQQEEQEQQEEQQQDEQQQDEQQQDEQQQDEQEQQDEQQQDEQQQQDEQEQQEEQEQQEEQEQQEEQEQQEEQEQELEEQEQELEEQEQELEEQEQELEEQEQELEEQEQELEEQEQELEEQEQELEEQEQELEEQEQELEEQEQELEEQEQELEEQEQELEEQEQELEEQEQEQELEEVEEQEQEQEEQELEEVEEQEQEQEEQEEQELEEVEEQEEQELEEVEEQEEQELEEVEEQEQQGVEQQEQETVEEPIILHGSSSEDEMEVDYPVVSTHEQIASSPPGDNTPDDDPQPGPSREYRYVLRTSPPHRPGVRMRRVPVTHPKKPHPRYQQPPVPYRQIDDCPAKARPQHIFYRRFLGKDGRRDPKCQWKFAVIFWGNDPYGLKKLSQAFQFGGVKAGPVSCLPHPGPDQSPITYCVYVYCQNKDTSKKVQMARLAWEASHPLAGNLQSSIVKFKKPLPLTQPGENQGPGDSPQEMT
# * marks the source's active call; other numbers are inactive results; ? = inconclusive; nt = not tested or not shown; & = joins results of further samples.
# The line under a structure holds: Calb FLC	Beta cell apopt	Vif A3G	AF4-AF9 inh	LANA-H2A inh	RanGTP-Impb inh	T cruzi inh	A1 inh
- CC(C)c1[nH]nc2c1C(c1cccc(OC(=O)N3CCOCC3)c1)C(C#N)=C(N)O2 (stereo not given)
  -3	nt	13%	nt	3.4	3.1	-10	-0.1
- CCOC(=O)c1c(N2C(=O)Nc3ccccc3N2O)sc2c1CCCC2
  38	-2	nt	-1.9	-1.5	20*	-4	0.2
- Cc1ccc(OCCN2C(=O)C(=O)c3cccc(C)c32)cc1
  2	-7	?	-3.8	-4.9	4.7	?	-0.2
- NC(=O)CC(NC(=O)Cc1cccc2ccccc12)c1ccc(NC2CCCCCC2)c([N+](=O)[O-])c1 (stereo not given)
  7	-5	-4%	-0.7	-2.4	-1.7	-11	0.9
- COc1ccccc1OCc1n[nH]c(=S)n1Cc1ccccc1
  28	1	0%	-8.3	4.7	2.8	-9	0.1
- CCOC(=O)c1c(C)nc2ccccn12
  -9	-6	14%	nt	2.2	2.0	-6	-0.3
- CCOC(=O)Cn1c(=O)c2c(nc(N3CCOCC3)n2C)n(C)c1=O
  1	2	-1%	nt	2.4	3.8	5	-0.5
- CCOc1ccccc1NC(=O)c1cc(-c2ccncc2)nc2c(Cl)cccc12
  -3	nt	nt	1.0	nt	0.9	57*	nt
- C=CCOc1c(CNc2ccc3[nH]c(=O)[nH]c3c2)cccc1OC
  -16	3	6%	5.9	-4.3	0.6	-10	0.2
- COc1ccc2[nH]c(=O)c(CN(C(=O)c3ccccn3)c3ccccc3)cc2c1
  1	-2	-5%	nt	-5.8	-1.8	-4	-0.3
- C=CCN1C(=O)/C(=C2/Sc3ccccc3N2C)SC1=Nc1c(C)n[nH]c1C
  25	5	4%	nt	1.0	2.0	12	2.1
- CCN1CCN(C(=O)C2CCC(=O)N(Cc3cccc(C(F)(F)F)c3)C2)CC1 (stereo not given)
  0	-3	-8%	-1.4	-2.5	0.7	-6	0.3
- NC(=O)c1ccccc1NC(=O)CN1CCCCCC1
  -2	-4	nt	-0.4	-0.4	-2.9	-1	0.6
- CCCc1cc(C(N)=O)c(NC(=O)c2cc(C)on2)s1
  48	-14	22%	-15	-0.3	-1.8	13	0.0
- CC1(CC(=O)NNC(=O)Nc2ccccc2)OCCCO1
  -6	-6	0%	-0.7	7.3	-3.7	-19	-2.4
- CCc1ccc(/C(C)=N/NS(=O)(=O)c2ccc(OC)cc2)s1
  5	nt	nt	-1.0	nt	0.0	3	nt
- Nc1nnc(SCC(=O)NC23CC4CC(CC(C4)C2)C3)s1
  ?	-5	32%	nt	-1.7	2.0	-5	-0.3
- CC1CN(S(=O)(=O)c2cccc(C(=O)OC/C(O)=C(\C#N)c3nc4ccccc4[nH]3)c2)CC(C)O1 (stereo not given)
  -4	4	18%	2.6	-0.8	0.3	13	-0.3
- Fc1ccc(-c2nnc(SCc3cccnc3)o2)cc1
  -11	nt	1%	-2.3	3.0	0.3	-1	0.7
- CCc1cccc(NC(=O)C(NC(=O)C2CCCCC2)C(C)C)c1 (stereo not given)
  -2	1	3%	-53	8.8	3.5	3	-0.2
- CCCCOc1ccc(C(=O)CCN2CCCCC2)cc1
  nt	5	0%	-1.5&-3.7	-14	-3.4	-5	0.2
- COc1ccc(NC(=O)COC(=O)CNC(=O)C2CCCCC2)cc1
  -4	0	4%	-1.2	-1.8	2.2	-12	0.4
- Cc1cc(C)c2oc(=O)cc(CN3CCC(C)CC3)c2c1
  -1	3	nt	1.2	-4.4	1.0	8	0.0
- Nc1c(Br)cc2oc(-c3ccccc3)nc2c1Br
  -3	-1	nt	nt	-3.1	-2.1	-5	-0.9
- Oc1ccc(C=Nc2ccccc2-c2nc3ccccc3[nH]2)c(O)c1
  1	nt	-2%	-6.8	1.7	7.4	1	-0.7
- OC1(c2ccc(Cl)cc2)CCN(Cc2nc(-c3cnccn3)no2)CC1
  -16	-2	-10%	1.1	2.6	4.8	15	-0.3
- COc1ccc(N(C(=O)CNC(=O)c2ccco2)C(C(=O)NCC2CCCO2)c2ccc(OC)c(OC)c2)cc1 (stereo not given)
  1	1	nt	1.1	-17	4.0	-10	0.3
- COc1ccc2oc(=O)c(C(=O)N3CCN(C(=O)c4ccco4)CC3)cc2c1
  -2	-1	1%	-0.4	-3.8	4.7	-1	0.4
- COc1cc(C2C(C(=O)c3ccc(C)o3)=C(O)C(=O)N2c2cc(C)on2)ccc1O (stereo not given)
  28	1	18%	nt	6.3	7.7	-9	1.2
- O=C(NCc1ccc2c(c1)OCO2)c1cccc(S(=O)(=O)N2CCCC2)c1
  -31	-4	nt	2.9	-5.7	3.1	4	-0.6
- COc1ccc(C2CC(=O)C(C=NCCO)=C(O)C2)cc1 (stereo not given)
  -13	-4	nt	0.3	-3.2	-1.6	1	0.2
- CCOC(=O)C(C(=O)OCC)[C@@H]1CS(=O)(=O)C[C@H]1C(C(=O)OCC)C(=O)OCC
  6	-5	-1%	nt	-0.3	2.3	-8	-0.6
- CCOc1ccccc1NC(=O)CSc1nnc(-c2cnccn2)n1CC
  3	4	?	nt	3.1	-4.1	-1	1.1
- CC(=O)c1cc2c(cc1NC(=O)CN1CCN(c3cccc(C(F)(F)F)c3)CC1)OCO2
  -6	2	15%	nt	0.4	3.6	32	-0.3
- O=C(O)c1cc(C(F)(F)F)nc2c(C(F)(F)F)cccc12
  -6	-1	4%	-1.9	-1.7	3.5	-6	1.0
- O=C(NCc1ccccc1)N(Cc1cc2cc3c(cc2[nH]c1=O)OCO3)CC1CCCO1 (stereo not given)
  9	-12	-10%	nt	-5.8	-11	5	0.2
- COC(=O)c1ccncc1N
  1	4	-10%	-2.6	-0.8	3.3	-8	-0.9
- CCOC(=O)C1=C(O)/C(=C/N(C)C)N=C1C
  26	-6	5%	nt	-1.3	-4.4	-10	0.1
- Cc1ccc(C(=O)NCC(=O)Nc2cc(C)ccn2)cc1
  -1	-9	-3%	-17	0.0	0.0	8	0.9
- COc1ccc(S(=O)(=O)N2CCN(C(=O)c3ccc(NC(C)=O)cc3)CC2)cc1
  nt	-5	nt	2.5	-2.3	nt	nt	-1.1

# An excerpt of these results, with tabs.
structure	Calb FLC	Beta cell apopt	Vif A3G	AF4-AF9 inh	LANA-H2A inh	RanGTP-Impb inh	T cruzi inh	A1 inh
Cc1ccc(C(=O)NCC(=O)Nc2cc(C)ccn2)cc1	-1	-9	-3%	-17	0.0	0.0	8	0.9
CCOc1ccccc1NC(=O)CSc1nnc(-c2cnccn2)n1CC	3	4	?	nt	3.1	-4.1	-1	1.1

# Further compounds follow.
# The line under a structure holds: Calb FLC	Beta cell apopt	Vif A3G	AF4-AF9 inh	LANA-H2A inh	RanGTP-Impb inh	T cruzi inh	A1 inh
- O=C(Nc1ccccc1Sc1ccccc1)c1ccc(F)cc1
  8	-7	nt	nt	5.9	1.2	-7	0.3
- CC(C)(C)c1nnc(N/N=C/c2ccccc2O)n(N)c1=O
  -31	nt	nt	nt	-3.9	2.1	45	0.5
- O=S(=O)(NCC(c1ccco1)N1CCN(c2ccccc2F)CC1)c1ccc(F)cc1 (stereo not given)
  8	1	28%	nt	-4.6	0.9	-10	0.7
- C=CCn1c(SCC(=O)N2CCOCC2)nnc1C(C)NC(=O)c1ccccc1 (stereo not given)
  -14	2	nt	-2.2	-11	1.6	-5	0.2
- COc1ccc(-c2cc(C(=O)Nc3cc(S(N)(=O)=O)ccc3C)c3ccccc3n2)cc1OC
  -6	-2	nt	-6.3	-8.7	3.1	5	-1.3
- O=C1CC(c2ccccc2)C(C(=O)O)N1 (stereo not given)
  -8	-2	1%	-0.9	3.5	0.3	-21	0.0
- CCn1c(C(c2ccccc2)c2ccccc2)n[nH]c1=S
  2	5	-1%	nt	2.1	-1.2	-7	1.8
- COc1cc(NC(=O)c2ccccc2[N+](=O)[O-])c(C(=O)O)cc1OC
  3	0	nt	-2.5	2.8	0.5	0	0.0
- COc1cc(NC(=S)NCC2CCCO2)c(OC)cc1Cl (stereo not given)
  -5	-1	nt	1.4	-2.6	-2.2	-8	0.3
- O=S(=O)(c1ccc2c(c1)OCCO2)N1CCc2ccccc21
  4	-8	4%	-1.5	-6.1	?	11	0.1
- O=C(Cn1ccc2ccccc2c1=O)NCC1COc2ccccc2O1 (stereo not given)
  -5	-3	-6%	nt	-3.9	1.2	-10	0.2
- COc1ccccc1-n1cnc(N)c1C(C)=O
  0	-5	17%	nt	-4.3	-5.0	-16	-0.4
- CCCc1cc(CNC(=O)C2CCC(=O)N(CCc3cccc(F)c3)C2)on1 (stereo not given)
  60	1	nt	0.7	1.8	3.2	-19	1.2
- COc1ccc(NC(=O)c2ccc(-n3cccn3)c([N+](=O)[O-])c2)cc1
  -5	2	3%	-1.4	11	0.3	1	0.1
- CC(=O)NCCCc1nc2ccccc2n1Cc1ccccc1F
  3	4	nt	-11	-1.5	4.3	-8	1.7
- CC(C)(C)OC(=O)N1CCCC1C(=O)O (stereo not given)
  ?	0	0%	nt	4.0	-1.6	4	1.4
- Cc1nc(-c2ccc(F)cc2)c(CC(=O)N(C)CC(=O)Nc2ccccc2C(F)(F)F)s1
  nt	1	0%	-19	0.3	0.5	-5	0.8
- CCOC(=O)c1c(NC(=O)COC(=O)c2ccccn2)sc(C(=O)N(C)C)c1C
  9	1	1%	8.8	2.7	2.8	-9	0.3
- Cc1nc2ccc(NC(=S)NC(C)C)cc2nc1C
  -3	-4	7%	nt	-3.0	-1.9	-23	0.1
- CN(CC(=O)Nc1ccc(F)cc1)C(=O)CNC(=O)C1CCCCC1
  nt	-4	10%	-1.1	0.7	nt	nt	1.6
- CCOC(=O)c1cnn(-c2ccc(C(C)C)cc2)c1NC(=O)C1CCC1
  -11	-3	-10%	nt	-7.9	7.6	2	0.5
- O=c1c2ccccc2nc(/C=C/c2cccnc2)n1CCc1ccccc1
  13	-8	nt	20	1.8	5.4	17	0.1
- O=C(O)C1CCN(C(=O)CSc2nc3ccccc3c(=O)n2Cc2ccccc2)CC1
  1	nt	nt	0.2	-9.2	1.8	-16	-0.9
- O=C1C(=O)N(CCN2CCOCC2)C(c2cccnc2)/C1=C(/O)c1ccccc1 (stereo not given)
  -2	-3	3%	nt	2.7	4.4	5	1.6
- COc1ccc(CC(=O)OCC(=O)NCCc2ccccc2)cc1OC
  9	-4	19%	9.1	-1.5	0.3	6	0.1
- COc1ccc(OC)c(S(=O)(=O)Nc2cccc3c(O)cccc23)c1
  3	-2	nt	0.9	-0.2	1.9	-3	0.0
- COc1cc(/C=N/NC(N)=S)ccc1OCC(=O)Nc1ccc(C)cc1
  15	-6	14%	nt	0.2	-2.3	-13	0.9
